VDR inhibitor – Inhibitors of the vitamin D receptor (VDR): qHTS; Vitamin D3 receptor (Homo sapiens), P11473; VDR-SRC2-3 peptide fluorescence polarization, 2 h; Potency, µM, for the others: max response, negative = inhibition, actives largely listed as inhibitors; 400,000 tested, 0.93% active; active = well fitted inhibition curve with a large enough effect; inconclusive = small, poorly fitted or top-dose-only effect, or another doubt; inactive = no such curve, though single readings can be large or run the other way; also: series mostly up to about 120 µM
Target sequence (P11473 whole entry, looked up): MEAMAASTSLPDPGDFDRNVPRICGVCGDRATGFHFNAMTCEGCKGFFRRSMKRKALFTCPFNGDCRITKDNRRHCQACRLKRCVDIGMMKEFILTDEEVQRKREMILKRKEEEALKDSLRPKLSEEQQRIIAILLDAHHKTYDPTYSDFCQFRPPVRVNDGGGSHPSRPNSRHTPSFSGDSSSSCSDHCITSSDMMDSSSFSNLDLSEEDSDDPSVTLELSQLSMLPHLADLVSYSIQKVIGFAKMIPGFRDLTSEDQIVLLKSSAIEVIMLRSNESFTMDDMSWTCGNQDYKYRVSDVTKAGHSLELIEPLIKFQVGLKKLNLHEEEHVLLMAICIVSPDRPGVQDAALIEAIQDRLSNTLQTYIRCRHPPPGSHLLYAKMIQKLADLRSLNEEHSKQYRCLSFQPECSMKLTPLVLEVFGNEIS
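FP read-out; VDR + SRC2-3 coactivator peptide; 23 nl compound by pintool; 2 h RT incubation; reagents held at 4 deg C, protected from light.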
* marks the source's active call; other numbers are inactive results; ? = inconclusive; & = joins results of further samples. % is scaled to controls: 0 for no effect and ±100 for the full control effect; potency is read from the fitted curve at half-maximal effect.

SMILES	VDR inhibitor
CCN1CCN(C(=O)C(C)Nc2cc(Cl)c(OC)cc2OC)CC1 (stereo not drawn)	-6.2%
COc1ccc(-c2nc3n(n2)C(c2ccccc2)C2=C(CCCC2=O)N3)cc1OC (stereo not drawn)	-9.8%
Fc1ccccc1NC(=S)N(CCCN1CCOCC1)Cc1cccnc1	-8.6%
COc1cccc(N2CCN(c3ccc4nnc(CCC(=O)O)n4n3)CC2)c1	-6.4%
CC(C)(C)S(=O)N1Cc2cc(CO)cc(CCO)c2[C@@H]1CCO (stereo partly drawn)	-3.3%
Cc1nc2c(-c3ccc(F)cc3)c(C)nn2c(C)c1CCC(=O)N1CCN(c2ccccn2)CC1	-10.2%
CCOc1ccc(S(=O)(=O)NCCN2CCOCC2)c2ccccc12	21.6%
COc1ccc(C2CC(=O)Oc3cc(OC)c(OC)c(OC)c32)cc1 (stereo not drawn)	3.0%&-0.6%
CCCCCCCC/C=C\CCCCCCCC(=O)NCC(=O)O	-3.0%
O=C(CCCc1ccccc1)Nc1nnc(C(F)(F)F)s1	-0.2%
CCCOc1ccc(N2CC(C(=O)Nc3ccccc3C(=O)NC)CC2=O)cc1 (stereo not drawn)	-13.2%
Cc1onc(-c2c(F)cccc2Cl)c1C(=O)Nc1ccc(S(=O)(=O)Nc2ncccn2)cc1	4.8%
CCOC(=O)N1CCN(C(=O)C(c2ccccc2)c2ccccc2)CC1	-18.7%
CCOC(=O)C1CCN(c2c(NCc3ccc(C(=O)NC4CCCC4)cc3)c(=O)c2=O)CC1	-16.0%
CSCCC1NC(=O)N(CC(=O)Nc2ccc(Br)cc2Br)C1=O (stereo not drawn)	-22.0%
O=C(Nc1sc2c(c1-c1nc3ccccc3[nH]1)CCCC2)C1CC1	3.9%
CCN(CC)CCNC(=O)c1ccc(NC(=O)c2ccc(COc3ccccc3)cc2)cc1	12.0%
CCN(CC)CCN(C(=O)c1ccc(C(=O)OC)cc1)c1nc2ccc(Cl)cc2s1	2.2%
COc1cccc(CNC(=O)COc2cccc(-n3cnnn3)c2)c1	-12.7%
CC(C)OC(=O)c1cccc(NC(=O)CSc2nnc(N)s2)c1	6.2%
CN(C)S(=O)(=O)c1ccc(N2C(=O)CC2(/C=C/c2ccccc2)C(=O)NC2CCCC2)cc1 (stereo not drawn)	-1.5%
O=C(Nc1ccccc1)C1CC(=O)n2ncnc2N1 (stereo not drawn)	-8.5%
Cc1cc(OC(C)C(=O)N(Cc2ccco2)Cc2ccco2)cc(C)c1Cl (stereo not drawn)	2.6%
O=S(=O)(NCCN1CCCC1)c1ccc(C(F)(F)F)cc1	-24.2%
COc1ccccc1NC(=O)c1cc2ccccc2o1	7.5%

Other results
SMILES	VDR inhibitor
Cc1ccc(C(=O)O)cc1-n1c(=O)n(Cc2ccccc2)c(=O)c2[nH]cnc21	1.2%
Cc1ccccc1NC(=O)c1ccc(-c2ccc(Cl)cc2Cl)o1	9.5%
COc1ccc(CCC(=O)NCc2ccc3c(c2)CCN3C(=O)c2ccc(F)cc2)cc1	1.5%
S=C(Nc1ccc(Cl)cc1)NC1CC2CCCC(C1)N2C1CCCC1 (stereo not drawn)	17.3%
CC1=NN(C(=O)CCc2ccc3c(c2)OCO3)C(O)(C(F)(F)F)C1 (stereo not drawn)	11.4%
O=C1C(c2ccc(C(F)(F)F)cc2)=C(Nc2ccc(Cl)cc2)c2ccccc21	9.6%
CC(C)(C)c1cc(NC(=O)c2cc(F)c(F)c(F)c2F)no1	15.4%
Nc1nc(NCCN2CCOCC2)nc(NCc2ccccc2)c1[N+](=O)[O-]	-0.5%
Cc1c(CN2CCC(Oc3ccc(C(=O)N4CCCCC4)cc3)CC2)cnn1C	-3.0%
CCOC(=O)c1nnn(-c2nonc2N)c1CSc1nnc(N)s1	8.9%
O=C(NCc1ccccc1)c1c[nH]c2cc3c(cc2c1=O)OCCO3	3.7%
N#CCCn1cc(C(=O)NCc2ccccc2)c(-c2cccs2)n1	-8.8%
O=C(NCCOC(=O)c1ccc(Cl)c(S(=O)(=O)N2CCCCC2)c1)c1ccncc1	3.1%
O=C(O)C1CCN(C(=O)c2ccccc2Cl)CC1	1.8%
O=C(/C=C/c1ccc(Cl)cc1Cl)N(Cc1ccccc1)C1CCS(=O)(=O)C1 (stereo not drawn)	-25.4%
COc1ccccc1N1CCN(C(=O)CSc2nnc(NC(=O)C3CC3)s2)CC1	1.1%
COC(=O)CNC(=O)c1cccc(-c2ccc(OC)cc2)c1	-15.2%
COc1ccc(C)cc1NC(=O)CCN1CCCC1	-7.2%
CN(C)/C=N/N(C)c1ncccc1[N+](=O)[O-]	8.2%
CC1CCN(S(=O)(=O)c2ccc3nc(N4CCN(c5ccccc5)CC4)ccc3c2)CC1	-7.2%&11.0%
CCOC(=O)c1sc(NC(=O)CN2C(=O)NC3(CC(C)CC(C)(C)C3)C2=O)cc1C (stereo not drawn)	-18.3%
COc1ccc(-c2nc3cnc(OC)nc3n(Cc3cccc(OC)c3)c2=O)cc1	-2.8%
Cc1ccc(CNC(=O)c2cc(-c3ccc(Cl)cc3)on2)cc1	1.1%
O=C(c1cc(-c2ccc(Cl)cc2Cl)on1)N1CCN(C(=O)c2ccco2)CC1	-8.7%
Clc1ccc2nc(-c3ccccc3)nc(C(Cl)Cl)c2c1	-15.7%

Next structures
SMILES	VDR inhibitor
C=CCOc1ccc(C2c3c(oc4ccccc4c3=O)C(=O)N2CCCN2CCOCC2)cc1 (stereo not drawn)	10.4%
Cc1cc(C)n(-c2ccc(C(=O)NCc3ccc(F)cc3)cc2)n1	-5.3%
O=C1C=C(c2cccc(CO)c2)C[C@@H](c2ccc(F)cc2)C1	-10.7%
COc1ccc(C(=O)Nc2ccc(S(=O)(=O)NC(C)(C)C)cc2)cc1[N+](=O)[O-]	-26.8%
Cc1cc(C)n(-c2n[nH]c(=O)c3ccccc23)n1	-0.7%
Cc1cc(C)c(C)c(S(=O)(=O)N2CCN(c3ncnc4sc(C)c(C)c34)CC2)c1C	?
COc1cc(C(=O)OCC(=O)c2cc(C)n(C)c2C)cc(OC)c1OC	?
O=C1NC(=O)/C(=C\c2ccc(N3CCOCC3)o2)N1	25.1µM*
CCCc1nc2c([nH]1)c(=O)n(C)c(=O)n2C	-13.9%
CCOC(=O)C1=C(CSc2nc3c(cc2C#N)CN(C)CC3)OC(N)=C(C#N)C1c1ccncc1 (stereo not drawn)	-21.6%
COC(=O)CNC(c1ccccc1)c1cc(Br)ccc1NC(C)=O (stereo not drawn)	-1.9%
COc1cccc(OC)c1C(=O)Nc1ccc(CN2CCOCC2)cc1	6.2%
CCCCc1nn(-c2ccccc2C(F)(F)F)c(=O)n1Cc1ccc(-c2ccccc2S(=O)(=O)NC(=O)c2sccc2C)cc1	44.7µM*
O=C(NCCCO)C(=O)Nc1cc2c3c(c1)CCC(=O)N3CCC2	11.0%
CCC(C)[C@H](NC(=O)NC1CCCc2ccccc21)C(=O)O (stereo partly drawn)	1.1%
CCCCC1=C(C(=O)OCC)C(C(=O)OCC)Oc2ccccc21 (stereo not drawn)	?
CC(=O)C1(C)CC2(CC(C)(C)OC2=O)C(=O)O1 (stereo not drawn)	5.2%
CCn1c(SCC(=O)NC2CCCC2)nnc1-c1ccccn1	-4.7%
O=C1Nc2ccc3sc4ccccc4c3c2C1=O	-2.9%
CC(C)CCNC(=O)C1C2C=CC3(CN(Cc4ccccc4Cl)C(=O)C13)O2 (stereo not drawn)	-8.5%
N#Cc1cc2c([nH]c1=O)CCCC2	-15.0%
Cc1ccc2nc(-c3ccc(SCC(=O)O)nc3)[nH]c2c1	-1.5%
COC(=O)C1=C(Nc2ccc(C)cc2)C=C(C)C(C(=O)OC)C1c1ccc(OC)cc1 (stereo not drawn)	-2.9%
CCN1C(=O)C(O)(CC(=O)C(C)(C)C)c2cc(Br)ccc21 (stereo not drawn)	-9.8%
COc1ccc(-n2c(SCC(=O)O)nc3sc4c(c3c2=O)CCCC4)cc1	3.9%

Shown bar-delimited: part of the list above.
mol | VDR inhibitor
O=C1NC(=O)/C(=C\c2ccc(N3CCOCC3)o2)N1 | 25.1µM*
CCCc1nc2c([nH]1)c(=O)n(C)c(=O)n2C | -13.9%
COc1cc(C(=O)OCC(=O)c2cc(C)n(C)c2C)cc(OC)c1OC | ?
O=C1Nc2ccc3sc4ccccc4c3c2C1=O | -2.9%
COc1cccc(OC)c1C(=O)Nc1ccc(CN2CCOCC2)cc1 | 6.2%
CCn1c(SCC(=O)NC2CCCC2)nnc1-c1ccccn1 | -4.7%

Of the compounds above, five have a furan ring, fused or not:
SMILES	VDR inhibitor
Cc1cc(OC(C)C(=O)N(Cc2ccco2)Cc2ccco2)cc(C)c1Cl (stereo not drawn)	2.6%
COc1ccccc1NC(=O)c1cc2ccccc2o1	7.5%
Cc1ccccc1NC(=O)c1ccc(-c2ccc(Cl)cc2Cl)o1	9.5%
O=C(c1cc(-c2ccc(Cl)cc2Cl)on1)N1CCN(C(=O)c2ccco2)CC1	-8.7%
O=C1NC(=O)/C(=C\c2ccc(N3CCOCC3)o2)N1	25.1µM*

Later entries.
SMILES	VDR inhibitor
O=C(O)/C=C/c1ccc(Oc2ncccn2)cc1	13.3%
CCOCCCNC(=O)CN1C(=O)c2c(c3ccccc3n2C)C1c1ccc(OC)cc1 (stereo not drawn)	6.9%
Cc1ccc(NN=C2c3ccccc3-c3ccccc32)cc1	-20.1%
CCCCNC(=O)CN1C(=O)NC(CCc2ccccc2)C1=O (stereo not drawn)	-11.4%
c1ccc(CSc2nnc([C@@H]3CCCN3)o2)cc1	21.2%
CC1=NN2C(=N)/C(=C\c3cc(C)n(-c4ccc(C)cc4)c3C)C(=O)N=C2S1	-26.9%
COc1ccc(C(C(O)C(=O)c2c[nH]c3ccccc23)N2CCN(c3ccccc3)CC2)cc1 (stereo not drawn)	5.1%
COc1ccc(/C=N/Nc2ncnc3sc(C)c(C)c23)cc1	-9.7%
O=C(O)c1cc(N=Nc2ccc(-c3ccc(N=Nc4ccc(O)c(C(=O)O)c4)cc3)cc2)ccc1O	12.6µM*
Cn1c(-c2ccc(Br)o2)nc2cc(Br)ccc21	-20.2%
Cc1[nH]c2ccc(F)cc2c1CCN1C(=O)OC(C)(C)C1(C)O (stereo not drawn)	2.3%
Cc1ccc(CNC(=O)c2ccc(Br)o2)cc1	-0.1%
CC(=O)Nc1ccc(S(=O)(=O)N2CCC(n3cnc4cc(F)ccc43)CC2)cc1	-2.6%
CCCN1CCN(CCCNC(=O)CN2C(=O)COc3ccccc32)CC1	12.1%
CCc1ccc(S(=O)(=O)NCC(O)COc2ccc(OC)cc2)cc1 (stereo not drawn)	-2.6%
O=C(c1cnn(-c2cccc(F)c2)c1-n1cccc1)N1CCN(c2ccccc2F)CC1	11.0%
COc1ccc(Br)cc1CNc1ccc(S(N)(=O)=O)cc1	-12.0%
N#Cc1ccccc1S(=O)(=O)N1CCN(c2nc(-c3cccnc3)nc3ccccc23)CC1	-6.7%
O=C(NCc1ccc(F)cc1)c1cc(S(=O)(=O)N2CCCCC2)c[nH]1	-5.3%
CCC(C)Cn1c(C(C)O)nc2ccccc21 (stereo not drawn)	-11.8%
N#Cc1ccccc1S(=O)(=O)N1CCN(C(=O)C2CCCC2)CC1	-5.5%
O=C(Nc1nc2ccccc2[nH]1)c1ccc(S(=O)(=O)N2CCOCC2)cc1	-6.2%
Cc1ccc(-c2nn3c(-c4ccco4)nnc3c3ccccc23)cc1S(=O)(=O)NCC1CCCO1 (stereo not drawn)	-3.0%
CCn1c(C(=O)NCc2ccccc2Br)cc2oc3ccccc3c21	5.1%
O=C(c1cccc([N+](=O)[O-])c1)N1CCN(c2ncccn2)CC1	-0.1%

Later entries
SMILES	VDR inhibitor
CCCn1nc(C(=O)NC2CCCc3ccccc32)c2ccccc2c1=O (stereo not drawn)	3.1%
COC(=O)c1ccc([C@@H]2Nc3c(OC)ccc(C)c3[C@@H]3C=CC[C@@H]32)cc1	-2.8%
CCOC(=O)C1CCCN(C(=O)c2ccc3c(c2)sc2nc(-c4ccc(C)cc4C)cn23)C1 (stereo not drawn)	1.7%
C=C(CC[C@@H](O)C(C)(C)O)[C@H]1CC[C@]2(C)[C@@H]1CCC1[C@@]3(C)CCC(=O)C(C)(C)C3CC[C@]12C (stereo partly drawn)	-15.4%
COc1ccc(C(=O)Cn2cnc3ccccc3c2=O)c(OC)c1	7.6%
CN1CCN2c3ccccc3CC3(C(=O)OC(C)(C)OC3=O)C2C1 (stereo not drawn)	-20.3%
COC(=O)c1c(NC(=O)CN2CCN(c3cccc(Cl)c3)CC2)sc(C)c1C	5.7%
COc1ccc(CCN2C(=O)CC(Cc3cccc(C)c3)C2=O)cc1OC (stereo not drawn)	-2.5%
CN(C(=O)c1cccc(C(F)(F)F)c1)C1CCCc2ccccc21 (stereo not drawn)	-11.4%
CCN(Cc1nc(-c2ccc(OC)c(OC)c2)no1)C(=O)c1ccoc1C	3.3%
CC(C)Oc1cccc(C(=O)C2CCCN(C(=O)c3cncs3)C2)c1 (stereo not drawn)	-5.1%
Cc1nn(-c2ccccc2)c(OC(=O)C(C)C)c1Sc1ccc(Cl)cc1	89.1µM*
Cc1ccc(N=C2SCCCN2C(=O)c2cccc(N3C(=O)CCC3=O)c2)cc1Cl	-9.0%
NC(=O)C1CCN(CC(O)CSc2ccc(F)cc2)CC1 (stereo not drawn)	-16.4%
O=C(Nc1c2c(nn1-c1ccc(F)cc1)CS(=O)(=O)C2)C12CC3CC(CC(C3)C1)C2	-10.8%
COc1ccccc1OCC(=O)Nc1ccc(-c2nnc(-c3ccco3)o2)cc1	-6.6%
CC(=O)N1CCN(C(=O)C2(NC(=O)Nc3cccc(F)c3)CCCCC2)CC1	-6.5%
O=c1[nH]c(Cc2cccs2)nc2ccccc12	11.6%
CCN(CC)C1=CC(=O)OC12CCCCC2	0.8%
CC(C)C(=O)Nc1ccccc1Cc1ccccc1	-14.7%
O=C(Nc1cccc(N2CCCC2)c1)c1cccs1	-0.5%
COc1ccc(C2CC(=O)Nc3c2c(=O)n(C)c2nc4ccccc4n32)cc1 (stereo not drawn)	-0.9%

Screens deposited in PubChem by National Center for Advancing Translational Sciences (NCATS).

A portion of the library. The share of hits here may be higher or lower than overall.
